Compound activity (PubChem)
DUX4 txn inh – blocks DUX4-driven transcriptional activation. actives 0.8% (n = 37,000). 293T-iDUX4 ZSCAN4-Gaussia luciferase reporter, 24 h; active compounds read low. activity change, negative = inhibition, % (no concentration beside the values);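 active means -10% or lower and over 25 points stronger than a control reporter; inconclusive means -10% or lower with a smaller gap; inactive means above -10%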;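 further: 0% = median of neutral control wells and -100% = median of positive control wells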
DUX4 txn inh difference – second read-out of DUX4 txn inh, no call of its own (marks repeat the call); Gaussia minus Italica difference, %; measured here: selective DUX4 reporter inhibition;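 worked out from the two reporters; negative = selective loss of the DUX4 reporter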
DUX4 txn inh control – further read-out of DUX4 txn inh, marked with its call; activity change, negative = inhibition, %; measured here: Italica tet-on control reporter;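 0 = neutral control and -100 = positive control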
* hit, by the source's call; ? = inconclusive; · = no result given. An excerpt; the hit share may differ from the screen's.

SMILES	DUX4 txn inh	DUX4 txn inh difference	DUX4 txn inh control
C[C@@H]1CN([C@H](C)CO)C(=O)c2cc(NC(=O)CCCN(C)C)ccc2O[C@@H](C)CCCCO[C@H]1CN(C)Cc1ccc(C(F)(F)F)cc1	0	-3	2.4
CC(=O)N(C)C[C@H]1Oc2cc(C#Cc3ccc(F)cc3)ccc2S(=O)(=O)N([C@H](C)CO)C[C@@H]1C	-2	-5	3.0
CCS(=O)(=O)Nc1ccc2c(c1)C(=O)N(C)C[C@@H](OC)[C@H](C)CN(C(=O)c1ccc3c(c1)OCO3)[C@@H](C)CO2	1	5	-3.8
O=C(O)C[C@@H]1C[C@@H]2c3cc(NC(=O)C4CCC4)ccc3O[C@@H]2[C@H](CO)O1	8	6	1.6
COc1ccc2c3c([nH]c2c1)[C@H](CO)N(Cc1nccs1)CC31CN(C(=O)C2CCCC2)C1	1	4	-3.8
CC(=O)N1[C@H](C(=O)NC2CCC2)[C@@H](CO)[C@@H]2Cn3c(ccc(-c4ccc(F)cc4)c3=O)[C@@H]21	2	5	-2.5
C[C@H]1CN([C@@H](C)CO)C(=O)c2c(c3ccccc3n2C)-c2ccccc2CO[C@H]1CN(C)S(=O)(=O)c1ccccc1C#N	?	·	·
C[C@H](CO)N1C[C@H](C)[C@@H](CN(C)C(=O)C2CC2)OCc2ccccc2-c2c(n(C)c3ccccc23)C1=O	3	3	0.6
C[C@@H]1CN([C@@H](C)CO)C(=O)CCCn2nncc2CO[C@@H]1CN(C)C(=O)Nc1cccc(F)c1	5	-4	8.6
CO[C@@H]1CN(C)C(=O)c2ccc(NC(=O)C3CCC3)cc2OC[C@H](C)N(Cc2ccncc2)C[C@@H]1C	3	6	-3.2
O=C(C[C@@H]1CC[C@@H]2[C@H](COC[C@H](O)CN2C(=O)c2ccccc2F)O1)N1CCCCC1	-5	-9	4.2
Cc1noc(C)c1NC(=O)Nc1ccc2c(c1)C(=O)N([C@H](C)CO)C[C@H](C)[C@@H](CN(C)S(=O)(=O)c1cccs1)OCCCC[C@H](C)O2	1	0	0.4
O=C(Nc1ccccc1F)N1CCCCN2[C@H](CO)[C@@H](c3ccc(C4=CCCC4)cc3)[C@H]2C1	3	-3	6.4
O=C(NCC1CCCCC1)[C@@H]1[C@@H](CO)[C@@H]2Cn3c(ccc(-c4cncnc4)c3=O)[C@H]1N2	1	2	-0.9
COc1cccc(C#Cc2ccc([C@@H]3[C@H](CO)N4C(=O)CN(C(=O)C5CC5)C[C@@H]34)cc2)c1	?	·	·
CCCN1[C@H](C(=O)N(C)C)[C@@H](CO)[C@@H]2Cn3c(ccc(-c4ccccc4OC)c3=O)[C@@H]21	-1	2	-2.8
C[C@@H]1CN([C@H](C)CO)C(=O)c2cc(C#CCN(C)C)cnc2O[C@@H]1CN(C)C(=O)Nc1cccc(F)c1	-1	-2	0.7
COCC(=O)Nc1ccc2c(c1)[C@H]1C[C@H](CC(=O)N(C)C)O[C@@H](CO)[C@H]1O2	8	11	-3.0
N#C[C@@H]1[C@H](c2ccccc2)[C@H](CO)N1C(=O)c1ccccc1F	3	7	-3.3
CN(C)Cc1cn(CC[C@H]2CC[C@H](NC(=O)Nc3ccc4c(c3)OCO4)[C@H](CO)O2)nn1	1	0	0.7
COc1ccccc1NC(=O)N(C)C[C@H]1OCc2ccccc2-c2c(n(C)c3ccccc23)C(=O)N([C@@H](C)CO)C[C@@H]1C	?	·	·
CCCNC(=O)N1CC(=O)N2[C@@H](CO)[C@@H](c3ccc(C#Cc4cccc(F)c4)cc3)[C@@H]2C1	-9	-9	-0.4
COCC(=O)Nc1ccc2c(c1)[C@H]1C[C@@H](CC(=O)N3CCc4ccccc4C3)O[C@H](CO)[C@H]1O2	0	3	-3.0
COc1ccc(S(=O)(=O)Nc2ccc3c(c2)CC(=O)N([C@H](C)CO)C[C@H](C)[C@@H](CN(C)Cc2ccc(C(=O)Nc4ccccc4N)cc2)O3)cc1	-4	-2	-2.5
COCC(=O)Nc1ccc2c(c1)[C@H]1C[C@H](CC(=O)NC3CCCC3)O[C@H](CO)[C@H]1O2	1	-4	5.1
CC(C)CN(C[C@@H]1[C@@H](c2ccccc2)[C@H](CO)N1C(=O)C1CCC1)C(=O)C1CC1	-6	-5	-0.7
O=C(c1ccncc1)N1C[C@H]2[C@@H](c3ccccc31)[C@H](CO)N2C(=O)c1ccncc1	-3	-2	-0.8
CO[C@@H]1CN(C)C(=O)c2cc(NC(=O)CC(F)(F)F)ccc2OC[C@H](C)NC[C@@H]1C	-1	-1	0.5
O=C(C[C@@H]1C[C@H]2c3cc(NS(=O)(=O)c4ccc(F)cc4)ccc3O[C@H]2[C@H](CO)O1)NCc1cccnc1	4	3	0.4
CN1C(=O)c2cc(NS(=O)(=O)c3ccccc3F)ccc2OC[C@@H]2O[C@@H](CC(=O)NC3Cc4ccccc4C3)CC[C@@H]21	0	2	-2.2
COc1ccccc1NC(=O)N1C[C@H](O)COC[C@H]2O[C@@H](CC(=O)NCCc3ccccc3)CC[C@@H]21	8	5	3.2
CNC[C@H]1Oc2ccc(NC(=O)c3ccncc3)cc2CC(=O)N([C@H](C)CO)C[C@H]1C	1	1	0.5
C[C@@H]1CN([C@@H](C)CO)C(=O)Cc2cc(NS(=O)(=O)c3cccs3)ccc2O[C@H]1CN(C)Cc1ccc(-c2ccccc2)cc1	-1	2	-2.9
C[C@@H]1CN([C@@H](C)CO)C(=O)c2cc(NC(=O)CCN3CCOCC3)ccc2O[C@@H]1CN(C)CC1CCCCC1	1	-1	1.8
COc1ccccc1CNC(=O)C[C@H]1C[C@@H]2c3cc(NC(=O)Nc4ccccc4F)ccc3O[C@@H]2[C@H](CO)O1	-2	-3	1.0
CCCNC(=O)N[C@@H]1CC[C@@H](CC(=O)NC2CCC2)O[C@@H]1CO	6	7	-1.0
CC=Cc1ccc2n(c1=O)C[C@@H]1[C@@H](CO)[C@H](C(=O)NC3CCC3)N(S(C)(=O)=O)[C@H]21 (mixture of isomers)	0	3	-2.5
C[C@@H]1CCCCO[C@@H](CN(C)C(=O)CCCN(C)C)[C@H](C)CN([C@H](C)CO)C(=O)c2cc(N(C)C)ccc2O1	-3	0	-3.3
COc1ccc(C#Cc2ccc3c(c2)[C@@H]2[C@@H](CCN2C(C)=O)[C@H](CO)N3C)cc1	5	-16	21
Cc1ccc(S(=O)(=O)N(C)C[C@@H]2OCCCC[C@H](C)Oc3ccc(NC(=O)c4ccncc4)cc3C(=O)N([C@H](C)CO)C[C@@H]2C)cc1	-6	-1	-4.1
O=C(C1CC1)N1CC2(C1)[C@H](c1ccccc1)[C@H](CO)N2S(=O)(=O)c1ccccc1	8	-3	12
CN1C[C@H]2[C@@H](c3ccccc31)[C@H](CO)N2C(=O)Nc1cccc(F)c1	2	0	2.0
O=C(NCCN1CCCC1)[C@@H]1[C@@H](CO)[C@@H]2Cn3c(cccc3=O)[C@@H]2N1C(=O)c1ccccc1	5	5	0.0
C[C@H]1CN([C@@H](C)CO)C(=O)c2cc(NS(=O)(=O)c3cn(C)cn3)ccc2O[C@H]1CN(C)Cc1ccc(-c2ccccc2)cc1	0	-2	2.1
CC(C)(O)C#Cc1cccc(-c2nc(C(=O)N3CCN(Cc4ccccc4)CC3)cc3c2[C@@H](CCO)N(S(=O)C(C)(C)C)C3)c1 (stereo partly drawn)	0	-3	3.0
CC(=O)N1[C@H](C(=O)N[C@H](C)c2ccccc2)[C@@H](CO)[C@@H]2Cn3c(cccc3=O)[C@@H]21	9	1	7.9
Cc1cccc(CN(C)C[C@H]2OCc3cnnn3CCCC(=O)N([C@H](C)CO)C[C@@H]2C)c1	1	4	-3.4
Cc1noc(C)c1NC(=O)Nc1cccc2c1O[C@H](CN(C)C(=O)Nc1ccc3c(c1)OCO3)[C@@H](C)CN([C@H](C)CO)C2=O	-4	-3	-1.3
CCC(=O)NC[C@H]1[C@@H](c2ccc(-c3cccc(F)c3)cc2)[C@@H](CO)N1C(=O)CC	2	-2	3.9
COC(=O)C[C@H]1CC[C@H]2[C@H](COc3ccc(NC(=O)NCc4ccccc4)cc3C(=O)N2C)O1	-2	-3	1.8

15 compounds already listed, ordered by length of the SMILES, highest first.
SMILES	DUX4 txn inh	DUX4 txn inh difference	DUX4 txn inh control
Cc1ccc(S(=O)(=O)N(C)C[C@@H]2OCCCC[C@H](C)Oc3ccc(NC(=O)c4ccncc4)cc3C(=O)N([C@H](C)CO)C[C@@H]2C)cc1	-6	-1	-4.1
C[C@H]1CN([C@@H](C)CO)C(=O)c2cc(NS(=O)(=O)c3cn(C)cn3)ccc2O[C@H]1CN(C)Cc1ccc(-c2ccccc2)cc1	0	-2	2.1
C[C@@H]1CN([C@@H](C)CO)C(=O)Cc2cc(NS(=O)(=O)c3cccs3)ccc2O[C@H]1CN(C)Cc1ccc(-c2ccccc2)cc1	-1	2	-2.9
CC(C)(O)C#Cc1cccc(-c2nc(C(=O)N3CCN(Cc4ccccc4)CC3)cc3c2[C@@H](CCO)N(S(=O)C(C)(C)C)C3)c1 (stereo partly drawn)	0	-3	3.0
C[C@@H]1CCCCO[C@@H](CN(C)C(=O)CCCN(C)C)[C@H](C)CN([C@H](C)CO)C(=O)c2cc(N(C)C)ccc2O1	-3	0	-3.3
COc1ccccc1CNC(=O)C[C@H]1C[C@@H]2c3cc(NC(=O)Nc4ccccc4F)ccc3O[C@@H]2[C@H](CO)O1	-2	-3	1.0
C[C@@H]1CN([C@@H](C)CO)C(=O)c2cc(NC(=O)CCN3CCOCC3)ccc2O[C@@H]1CN(C)CC1CCCCC1	1	-1	1.8
CC(=O)N1[C@H](C(=O)N[C@H](C)c2ccccc2)[C@@H](CO)[C@@H]2Cn3c(cccc3=O)[C@@H]21	9	1	7.9
O=C(NCCN1CCCC1)[C@@H]1[C@@H](CO)[C@@H]2Cn3c(cccc3=O)[C@@H]2N1C(=O)c1ccccc1	5	5	0.0
COC(=O)C[C@H]1CC[C@H]2[C@H](COc3ccc(NC(=O)NCc4ccccc4)cc3C(=O)N2C)O1	-2	-3	1.8
CCC(=O)NC[C@H]1[C@@H](c2ccc(-c3cccc(F)c3)cc2)[C@@H](CO)N1C(=O)CC	2	-2	3.9
COc1ccc(C#Cc2ccc3c(c2)[C@@H]2[C@@H](CCN2C(C)=O)[C@H](CO)N3C)cc1	5	-16	21
Cc1cccc(CN(C)C[C@H]2OCc3cnnn3CCCC(=O)N([C@H](C)CO)C[C@@H]2C)c1	1	4	-3.4
CN1C[C@H]2[C@@H](c3ccccc31)[C@H](CO)N2C(=O)Nc1cccc(F)c1	2	0	2.0
CCCNC(=O)N[C@@H]1CC[C@@H](CC(=O)NC2CCC2)O[C@@H]1CO	6	7	-1.0

More compounds
SMILES	DUX4 txn inh	DUX4 txn inh difference	DUX4 txn inh control
CO[C@@H]1CC[C@H]2CCN(C)C(=O)[C@@H](C)CN(C)C(=O)c3cccc(C#N)c3OC[C@@H]1O2	-1	-3	2.2
O=C(Cc1ccccc1)N1C[C@@H]2[C@H](c3ccccc31)[C@@H](CO)N2C(=O)C1CCCCC1	6	4	1.6
O=C(c1cnccn1)N1CC2(C1)[C@H](c1ccccc1)[C@@H](CO)N2C(=O)c1ccccc1	14	10	3.4
COc1ccc2c3c(n(C)c2c1)[C@H](CO)N(C(=O)Cc1ccccn1)CC31CCN(C)CC1	16	9	7.6
COCC(=O)Nc1ccc2c(c1)OC[C@@H](C)N(C(=O)CC1CC1)C[C@@H](C)[C@H](OC)CN(C)C2=O	1	-6	6.5
CO[C@@H](CN(C)C(=O)c1cnccn1)[C@H](C)CN([C@@H](C)CO)S(=O)(=O)c1ccc(C)cc1	1	10	-9.7
C[C@H]1CN([C@@H](C)CO)C(=O)c2cc(NC(=O)c3ccncc3)ccc2O[C@H]1CN(C)Cc1ccc(Oc2ccccc2)cc1	1	-4	4.2
C[C@@H]1CC=CC[C@@H](c2ccccc2)NC(=O)[C@@H](Cc2ccccc2)N(C)C(=O)c2ccccc2O1 (mixture of isomers)	-3	1	-3.9
Cc1ccccc1S(=O)(=O)N1CC[C@@H]2[C@H](CO)Nc3ccc(-c4cccc(F)c4)cc3[C@@H]21	?	·	·
COc1ccccc1CNC(=O)C[C@H]1CC[C@H]2[C@@H](COC[C@@H](O)CN2C(=O)Nc2ccc(C(F)(F)F)cc2)O1	13	8	5.4
CN(C)Cc1cn(CC[C@H]2CC[C@@H](N)[C@H](CO)O2)nn1	11	8	3.0
O=C(c1ccccc1F)N1CC[C@@H]2[C@H](CO)Nc3ccc(-c4ccc(F)cc4)cc3[C@@H]21	?	·	·
COc1ccc2c3c(n(C)c2c1)[C@H](CO)NCC31CCN(C(=O)Nc2ccc(F)cc2F)CC1	10	5	5.5
Cc1noc(C)c1NC(=O)NCC[C@@H]1CC[C@H](NC(=O)Cc2cccnc2)[C@H](CO)O1	-1	1	-2.2
O=C(C[C@H]1CC[C@H]2[C@@H](COC[C@H](O)CN2C(=O)Nc2ccc3c(c2)OCO3)O1)N1CCN(c2ccccc2)CC1	-2	0	-2.3
COc1ccccc1CN(C)C[C@H]1OCc2ccccc2-c2c(n(C)c3ccccc23)C(=O)N([C@@H](C)CO)C[C@@H]1C	?	·	·
O=C(Nc1cc(F)ccc1F)N1CCCCN2[C@H](CO)[C@H](c3ccc(-c4cccnc4)cc3)[C@@H]2C1	12	1	11
COc1ccc(NC(=O)N[C@@H]2CC[C@H](CCNC(=O)CN3CCOCC3)O[C@@H]2CO)cc1	1	-1	1.2
C/C=C/c1ccccc1[C@H]1[C@H](C#N)N(C(=O)CN2CCOCC2)[C@H]1CO	14	7	7.1
COc1ccc(-c2ccc3c(c2)[C@@H]2[C@@H](CCN2C(=O)NC2CCCCC2)[C@H](CO)N3C)cc1	?	·	·
C[C@@H]1CN([C@@H](C)CO)C(=O)c2cc(NC(=O)c3ccncc3)ccc2O[C@@H]1CN(C)S(=O)(=O)c1ccc(Cl)cc1	0	1	-0.6
OC[C@@H]1[C@@H](c2ccc(Br)cc2)[C@H]2CN(Cc3ccccn3)CCCCN12	9	-8	17
COc1cccc(CN2[C@@H]3CNC[C@H]2[C@H]3c2ccc(-c3ccccc3OC)cc2)c1	8	5	2.8
